Assay outcomes as filed in PubChem BioAssay.
PERK inh – human PERK inhibition, primary cell-based screen; Q9NZJ5; CHO PERK-DD fusion, SEAP luminescence translation reporter; inhibition, % at 5.6 µM; 220,000 tested, 0.17% active;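 active = inhibition above the mean inhibition of all tested compounds plus 3 SD, set separately per screening campaign, cut at about 2.9% in these data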;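 note: PERK kinase domain activated by AP20187 dimerizer at 100 nM; 0% = DMSO with dimerizer and 100% = rapamycin at 8.4 µM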
Calpain2 inh – inhibitors of pig calpain II. inhibition, % at 16 µM. AID 1236. 220,000 tested, 0.37% active. purified calpain II, fluorogenic peptide substrate, 30 min;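 active = inhibition above about 50%, limit read from the data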
KCC2 mod – modulators of human KCC2 chloride dependent transport. Q9H2X9. KCC2 cells, thallium flux FluoZin-2 fluorescence. B-score of Tl+ flux slope (higher = more flux/activation; lower = inhibition) at 10 µM. 190,000 tested, 2.2% active. AID 1456;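 active = thallium flux slope and its plate-corrected score both differing from the plate sample mean at a set confidence after two filtering rounds, in either direction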;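 note: slope of fluorescence scaled to starting intensity during 10 to 20 s after thallium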
Rad51 HR inh – blocks human Rad51 in homologous recombination | Q06609 | hRad51 DNA strand exchange, fluorescence dequenching | inhibition, % at 10 µM | 200,000 tested, 0.085% active;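 active = inhibition above 40% at the single screening dose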;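 note: 0% = DMSO control wells and 100% = blanks with heterologous ssDNA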
Target sequence (Q06609 whole entry, looked up): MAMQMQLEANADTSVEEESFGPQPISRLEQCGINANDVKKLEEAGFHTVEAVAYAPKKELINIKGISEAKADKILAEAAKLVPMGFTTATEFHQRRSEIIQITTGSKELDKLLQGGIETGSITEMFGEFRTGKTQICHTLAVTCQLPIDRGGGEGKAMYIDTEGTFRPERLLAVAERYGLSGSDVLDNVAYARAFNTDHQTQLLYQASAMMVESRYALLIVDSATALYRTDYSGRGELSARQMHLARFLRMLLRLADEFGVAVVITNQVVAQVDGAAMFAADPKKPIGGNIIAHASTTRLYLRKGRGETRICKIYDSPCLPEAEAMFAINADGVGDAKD
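Material: Human Rad51 nucleoprotein filaments preassembled on unlabelled ssDNA | Also added: Labelled 47-mer dsDNA for strand exchange | Dosing: Single dose, 10 µM final compound | Schedule: 30-min compound preincubation and 15-min exchange, both room temperature | Technique: Fluorescence dequenching at 485/520 nm | Measure: Percent inhibition relative to plate controls and blanks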
thrombin 1536 – blocks human thrombin protease activity; P00734; alpha-thrombin, Boc-VPR-AMC fluorogenic substrate cleavage; inhibition, % at 5 µM; 220,000 tested, 0.26% active;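 active = inhibition at or above 40%; inactive = inhibition below 40%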;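 note: 0% = enzyme with no compound and 100% = wells without enzyme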
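Test system: human alpha-thrombin; medium: pH 7.5 Tris-saline with Tween 20; times: reaction at room temperature; signal: AMC fluorescence at 355 nm excitation and 460 nm emission; also added: Boc-VPR-AMC substrate, 15 µM final; dosing: one concentration per compound, 5 µM, with 0.2% DMSO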
Furin inhibitor – inhibitors of human furin. P09958. purified furin, fluorogenic substrate cleavage. inhibition, % at 30 µM. 220,000 tested, 0.061% active; in the data active = inhibition above about 25%; note: inactives centre near -15
KLK5 inh – kallikrein 5 (human) inhibition | Q9Y337 | recombinant hK5, fluorogenic AMC substrate cleavage | inhibition, % at 5 µM | 210,000 tested, 0.59% active;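 active = inhibition of 40% or more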;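 note: 0% = enzyme controls without compound and 100% = no-enzyme blanks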
Target sequence (Q9Y337 67-293 limits assumed): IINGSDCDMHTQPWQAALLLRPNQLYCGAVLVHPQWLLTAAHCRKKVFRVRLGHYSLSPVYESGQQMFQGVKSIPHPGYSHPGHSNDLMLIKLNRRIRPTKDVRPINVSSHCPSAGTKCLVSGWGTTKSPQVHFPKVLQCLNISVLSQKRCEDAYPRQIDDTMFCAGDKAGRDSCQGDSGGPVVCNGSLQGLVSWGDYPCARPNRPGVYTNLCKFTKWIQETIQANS
Numbers without * were called inactive; x = not tested or not shown; [ ] = dose if it differs, or a comment. Some of the compounds tested (hit frequency here may not be typical).

SMILES	PERK inh	Calpain2 inh	KCC2 mod	Rad51 HR inh	thrombin 1536	Furin inhibitor	KLK5 inh
CCN1C(=O)CSc2ccc(C(=O)NC3CCCCC3)cc21	-0.1	1	0.47	0	-4	-31	1
Cc1ccc(NC(=O)C2CC(Cl)=CCC2C(=O)O)c([N+](=O)[O-])c1 (stereo not given)	1.2	-15	0.57	-4	-9	-22	-2
O=C(O)CCCNC(=O)c1ccccn1	-0.1	-8	0.17	x	-3	-8	-2
CC(=O)c1c(C)[nH]c(C(=O)COC(=O)CCCOc2ccccc2)c1C	-0.1	19	x	6	-10	0	0
CCN(CC)S(=O)(=O)c1cc(C(=O)OCC(=O)Nc2cccc(S(=O)(=O)N(C)C)c2)ccc1F	0.5	20	-2.3	x	2	-13	13
C/C(=N\NC(=O)COc1cccc(Cl)c1)c1ccc2c(c1)OCCO2	1.0	9	-0.93	12	1	-39	-2
COc1ccc(CC(=O)NCc2nnc(SCC(=O)Nc3nccs3)n2C)cc1	0.8	-8	-0.34	-3	x	-14	-2
COc1ccc(N/N=C(/C(N)=O)C2=NC(C)(C)Cc3ccccc32)cc1	-0.3	-2	-1.4	10	-2	-4	-10
Cc1ccc(S(=O)(=O)Nc2nc3ccccc3nc2NCC2CCCO2)cc1C (stereo not given)	-0.7	-14	0.39	x	-12	-13	-2
O=C(CSc1nnc(C2CCCCC2)n1-c1ccccc1)NCc1ccco1	0.3	5	-0.55	-6	0	-20	-11
CC1(C)COC(c2cccc(C3=NC(C)(C)CO3)n2)=N1	1.1	4	-0.0014	-15	-6	-22	-6
O=C(CSCC(=O)NCc1ccco1)NCc1ccco1	1.6	11	-0.4	-5	-3	-31	0
CCOC(=O)c1[nH]cnc1C(=O)Nc1ccc(Cl)cc1	-0.1	-24	-0.23	6	-5	-24	4
CCN(CC)CCCN1C(=O)C(=O)/C(=C(/O)c2ccc3c(c2)OCCO3)C1c1ccco1 (stereo not given)	1.0	-22	x	2	8	-11	-23
CCCN1C(=O)c2ccc(C(=O)NC3CCCCC3)cc2C1=O	1.1	-23	x	-2	-4	-15[20 µM]	4
COc1ccc(/C=C2/Sc3ccc(C(=O)N4CCc5ccccc5C4)cc3NC2=O)cc1	0.3	-88	-0.95	-8	1	-2	-19
Cc1cc(-c2cc(-c3ccc(Cl)cc3)on2)nc(NC2CCCC2)n1	x	18	0.38	-6	-4	-15	-3
COC(=O)CCC(=O)Nc1cccc([N+](=O)[O-])c1	0.5	3	-0.12	-2	-3	-17	-6
COc1cc(OC)c(C2C(C#N)=C(N)Oc3cc(C)n(CCCN4CCOCC4)c(=O)c32)cc1OC (stereo not given)	1.3	-29	-0.025	-5	1	-11	-8
Cc1ccc(S(=O)(=O)N(CC(=O)Nc2ccccc2C(=O)O)c2ccc(Cl)cc2)cc1	1.0	12	-2.2	-41	-2	-14	-9
COc1ccc(NC(=O)c2cc(S(=O)(=O)N3CCCCC3)ccc2N2CCCCC2)cn1	-1.2	21	-1.3	-1	-1	-1	-16
COc1ccc(-c2nc(-c3ccc(NC(=O)c4ccc(Br)o4)cc3)no2)cc1OC	0.5	-77	x	-1	-6	-21	-14
COc1cccc(-c2nc(-c3ccc(NC(=O)Cc4ccccc4OC)cc3)no2)c1	0.7	-4	x	4	-12	-13[20 µM]	-2
O=C(N/N=C/c1ccncc1)c1ccc(NS(=O)(=O)c2cccs2)cc1	0.2	-3	0.62	-44	-14	0	-11
COc1ccc(-c2nc(NC(C)=O)sc2-c2ccccc2)cc1	0.3	-34	1.3	x	-4	-17	x
O=C(Nc1cccnc1)c1sc(Nc2ccccc2)nc1-c1ccccc1	-0.3	-9	0.11	7	-5	-13	-18
Cc1ccc2nc(Nc3ccccc3)c(/C=N/O)c(=O)n2c1	-0.2	-3	-1.2	-1	5	-11[20 µM]	-14
CC(CC(=O)c1cccs1)CC(=O)c1cccs1	0.3	6	x	0	3	-20	-19
COCCn1c(=NC(=O)CSC(C)=O)sc2cc(OC)ccc21	-0.8	16	4.9e-05	6	2	6	-4
Cc1cc(NC(=O)C2CC(c3cccc(Br)c3)=NO2)no1 (stereo not given)	0.8	-30	0.47	-4	4	-7[20 µM]	-2
CCOc1ccc(OCC)c(NC(=O)CSc2nnnn2CC)c1	-0.1	27	-0.42	1	11	-15[20 µM]	6
NC(=O)c1cc(NC(=O)c2ccc(NS(=O)(=O)c3cccs3)cc2)cc(C(N)=O)c1	1.0	5	0.7	11	-3	-22	0
COC(=O)c1ccc(COC(=O)c2c(C)nn(Cc3ccccc3Cl)c2Cl)o1	0.2	34	1.5	8	0	-22[20 µM]	15
CCN1CCCC1CNS(=O)(=O)c1ccc(C(=O)Nc2ccccc2)cc1 (stereo not given)	-0.5	-26	0.83	x	0	-14[20 µM]	-11
CCc1cc(=O)oc2cc(C)cc(OC(=O)c3ccco3)c12	0.6	16	-0.79	9	21	-22[20 µM]	12
CCNC(=O)CC1C(=O)N(c2ccc(C)cc2)C(=O)N1CCc1ccc(OC)c(OC)c1 (stereo not given)	0.2	19	1	-1	-11	-22[20 µM]	-1
CC(C)(C)c1cc2nc(N)nc(N)n2n1	0.7	-12	0.52	-4	0	-18	-1
CCC(=O)n1nc(-c2ccc(Cl)cc2)nc1N	1.5	-31	-0.37	11	27	-40	0
COc1ccc(C2C(C(=O)OCC3CCCO3)=C(C)NC3=C2C(=O)CC(c2ccco2)C3)cc1O (stereo not given)	0.6	-59	-1.5	-3	-1	-34[20 µM]	-33
COc1ccc(-c2cc(-c3n[nH]c(=S)n3-c3ccccc3OC)[nH]n2)cc1	0.6	-21	-0.99	-4	-3	-3	-22

Entries of single compounds, looked up by structure.
CCc1cc(=O)oc2cc(C)cc(OC(=O)c3ccco3)c12 across the screens: PERK inh: 0.6; Calpain2 inh: 16; KCC2 mod: -0.79; Rad51 HR inh: 9; thrombin 1536: 21; Furin inhibitor: -22[20 µM]; KLK5 inh: 12
CC(CC(=O)c1cccs1)CC(=O)c1cccs1 across the screens: PERK inh: 0.3; Calpain2 inh: 6; KCC2 mod: x; Rad51 HR inh: 0; thrombin 1536: 3; Furin inhibitor: -20; KLK5 inh: -19

Next part:
SMILES	PERK inh	Calpain2 inh	KCC2 mod	Rad51 HR inh	thrombin 1536	Furin inhibitor	KLK5 inh
COc1ccc(C(C#N)Nc2ccc(C)cc2)cc1 (stereo not given)	-0.2	2	1.6	10	0	-14[20 µM]	7
CC(C)C[C@H](NC(=O)c1nc[nH]c1C(=O)NC1CCN(C(=O)OC(C)(C)C)CC1)C(=O)OC(C)(C)C	-0.1	44	0.13	8	-4	-8	0
C=CCn1c(CCNC(=O)c2ccccc2F)nnc1SCC(=O)Nc1nc(C)cs1	-0.9	13	2.5	1	2	-7[20 µM]	8
O=C(CSc1ccc(-c2ccccn2)nn1)Nc1nccs1	2.2	7	-2.7	1	-11	-20	-2
C=CCN(CC=C)C(=O)Nc1ccc2nc(C)sc2c1	0.3	-13	0.72	x	-3	-7	-10
COC(=O)c1ccc(NC(=O)Nc2ccc(OC)cc2)cc1	2.1	42	0.62	17	4	-16	-6
COc1ccc(F)cc1C(=O)C1CCCN(Cc2cccn2-c2cccnc2)C1 (stereo not given)	0.5	-23	x	x	0	-32	x
CCCCn1c(N)c(Br)c(=O)[nH]c1=O	0.3	2	1.2	-4	21	-10	19
COc1ccccc1NC(=O)C1=C(C)Nc2nnnn2C1c1ccncc1 (stereo not given)	1.7	14	-0.34	-8	-7	-11	-7
S=c1[nH]nc(COc2ccccc2)n1/N=C/C=C/c1ccccc1	0.4	-31	12*	6	-8	-20	-6
CNC(=O)c1[nH]cnc1C(=O)Nc1ccc(C)cc1	-0.1	2	1.1	-2	0	-15[20 µM]	-28
CN1CCN(CC(O)COCCOc2ccc(Br)cc2)CC1 (stereo not given)	0.3	-9	-0.63	4	-10	-14	-21
Cc1cccc(C(=O)O/N=C2\CCS(=O)(=O)c3sccc32)c1	1.8	-27	x	1	2	-20	-9
CN1CCNC(=O)C1CC(=O)NCCC1=CCCCC1 (stereo not given)	2.2	-4	1.5	-19	1	-21	x
Cc1ccc(S(=O)(=O)n2nc(-c3ccco3)nc2SCc2ccccc2)cc1	0.4	35	-0.67	x	3	13[20 µM]	8
CCOC(=O)C1=C(C)NC2=C(C(=O)CC(c3ccc(OC)c(OC)c3)C2)C1c1ccc(C)o1 (stereo not given)	-1.1	13	-0.097	x	2	-18	1
CC(CN(C)Cc1ccccc1)OC(=O)c1ccc2c(c1)OCCO2 (stereo not given)	-0.1	-5	0.21	-4	1	-16	2
O=C(CSc1nc(-c2ccco2)cc(C(F)(F)F)n1)N1CCc2ccccc2C1	-0.1	19	-0.73	-2	1	-8[20 µM]	7
C=CCC1(CC=C)CCCN1C(=O)CC1C(=O)NCCN1Cc1cccc(OC)c1OC (stereo not given)	-0.5	21	0.28	-7	9	-10	27
Cc1nc2nc[nH]n2c(=O)c1NC(=O)CCc1ccccc1	0.6	-5	0.69	4	-5	-14	-11

The closing two entries of the part above are carried over, then new ones follow.
SMILES	PERK inh	Calpain2 inh	KCC2 mod	Rad51 HR inh	thrombin 1536	Furin inhibitor	KLK5 inh
C=CCC1(CC=C)CCCN1C(=O)CC1C(=O)NCCN1Cc1cccc(OC)c1OC (stereo not given)	-0.5	21	0.28	-7	9	-10	27
Cc1nc2nc[nH]n2c(=O)c1NC(=O)CCc1ccccc1	0.6	-5	0.69	4	-5	-14	-11
O=C(CCc1ccc(CCC(=O)c2cccs2)s1)c1cccs1	0.3	-3	-0.013	1	6	-17	-10
COc1ccccc1N(CC(O)CN1C(=O)NC(C)(C)C1=O)S(=O)(=O)c1ccc(C)cc1 (stereo not given)	-0.2	23	-1.5	-15	0	-22	5
Cc1ccc(CNC(=O)C(C)OC(=O)c2cccs2)cc1 (stereo not given)	0.3	-9	-0.4	5	2	-4[20 µM]	3
COc1ccc(NC(=O)c2ccc(Br)o2)cc1	0.5	20	0.29	1	-1	-10	-7
COc1ccc(C(=O)Nc2nc3c(s2)Cc2cc(OC)ccc2-3)cc1	-0.1	-54	-0.39	1	6	-21[20 µM]	4
C=C(C)c1cccc(C(C)(C)NC(=O)NCc2ccc(OC)c(OC)c2)c1	-1.3	14	x	1	3	11[20 µM]	3
Cc1ccc2cc(C#N)c(NCCNC(=S)NCCCN3CCOCC3)nc2c1	0.1	-76	-0.58	3	-10	-27	1
CC(=O)c1cccc(N(CC(=O)N2CCCCC2)S(C)(=O)=O)c1	0.0	19	0.096	-4	1	-20[20 µM]	-10
CCOC(=O)CN1C(=O)SC(Nc2ccc(C)cc2)C1=O (stereo not given)	0.8	-17	0.37	0	-11	-19	-3
CCn1c(CNc2ccc(C)cc2)nnc1SCC(N)=O	1.6	-18	0.22	3	2	-28[20 µM]	-5
O=C(Cn1[nH]c(=O)c2ccccc2c1=O)Nc1cccc(S(=O)(=O)N2CCCCCC2)c1	0.2	-78	-3.2	10	22	8	27
O=C(CSc1nc(-c2ccco2)cc(C(F)(F)F)n1)NCCCn1ccnc1	0.4	-44	0.74	8	-2	-16	-15
CCOC(=O)N1CCN(C(=O)C2CCN(S(=O)(=O)c3cc(C)ccc3OC)CC2)CC1	-0.3	39	0.46	-14	20	-17	16
CCCOC(=O)c1cccc(NC(=O)C(C)(C)C)c1	-0.1	2	x	0	-9	-31	-7
CCC(C)(C)n1nnnc1C(c1cccs1)N1CCc2ccccc21 (stereo not given)	0.0	-10	-0.59	-5	-5	-12	0
Cc1cc(C)c2nc(N3CCN(C)CC3)c(C#N)cc2c1	0.3	-322	x	-4	-5	-27	-4
Cc1nc2cc(S(=O)(=O)N3CCC(C(=O)O)CC3)ccc2n1C1CCCC1	0.9	8	x	1	13	-23	13
COc1ccc(C(=O)c2no[n+]([O-])c2C(=O)c2ccc(OC)cc2)cc1	2.6	9	-0.39	12	0	-7	-42

Marked active in KCC2 mod (from the list above):
SMILES	PERK inh	Calpain2 inh	KCC2 mod	Rad51 HR inh	thrombin 1536	Furin inhibitor	KLK5 inh
S=c1[nH]nc(COc2ccccc2)n1/N=C/C=C/c1ccccc1	0.4	-31	12*	6	-8	-20	-6
